HSD17B inh = qHTS Assay for Inhibitors of HSD17B4, hydroxysteroid (17-beta) dehydrogenase 4 | AID 893, 2007 | 3-hydroxyacyl-CoA dehydrogenase type-2 (Homo sapiens), Q99714 | 7.6% of 75,000 active | Potency, µM (series often up to 57.1 µM), inactives show at the highest dose activity change, negative = inhibition, hits mostly inhibitors | recombinant HSD17B10, NADH fluorescence kinetic; many of its hits are not listed in these tables; active = well fitted inhibition curve with a large enough effect; inconclusive = small, poorly fitted or top-dose-only effect; inactive = no such curve, though single readings can be large or run the other way;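 note: the protocol describes HADH2 (HSD17B10) and not the HSD17B4 of the title; nearly all actives have a fitted effect of over 70% in size; most hits overshoot -100% by far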
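20 nM HADH2, pH 9.0 Tris/Tween; cpd preinc 15 min RT; start w/ 1 mM NAD+ + 90 uM b-hydroxybutyryl-CoA; kinetic fluor ex360/em450 q30s x 4 min; delta last-first.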
* = called active by the depositor; ? = inconclusive; [ ] = remark or other dose. % is set by controls: 0 for no effect and ±100 for the full control effect; potency is the fitted concentration of half-maximal effect. An excerpt, so the mix of outcomes need not match the whole.

| SMILES | HSD17B inh |
| --- | --- |
| CCOC(=O)N/N=C1/C[C@@H](O)[C@@H](O)[C@@H]2[C@@H]3C(=O)N([C@@H](C)c4ccccc4)C(=O)[C@H]3CC[C@H]12 | 0.5%[11.4 µM] |
| CC(=O)Nc1sc2c(c1C#N)CCCCC2 | 1.5% |
| Clc1c(CSc2nc3ccccc3o2)nc2sccn12 | -7.2% |
| Cc1ccc(Nc2nc(N)nc(CSc3nccn3C)n2)cc1 | -4.1% |
| COc1ccc(OCc2nnc(SC(C)C(=O)Nc3nccs3)n2-c2ccccc2)cc1 (stereo unspecified) | 3.8% |
| CCCc1nnc(NC(=O)C2CCCO2)s1 (stereo unspecified) | 4.1% |
| COc1ccc(CCNC(=O)Cn2cnc3c(cnn3-c3ccccc3Cl)c2=O)cc1OC | -5.6% |
| Cc1cc(C)nc(SC2CCCCC2O)n1 (stereo unspecified) | 7.8% |
| O=C(COC(=O)COc1ccccc1)Nc1ccccc1OC(F)F | 5.9% |
| CCC(=O)Nc1cccc(-c2nc3ccccc3o2)c1 | 25.1µM* |
| Cc1ccccc1CSc1nc2n(n1)C(c1cccs1)C1=C(CCCC1=O)N2 (stereo unspecified) | 25.1µM* |
| Cc1ccc(Cn2nnc3c(=O)[nH]c(C4CCN(C(=O)Cc5cccs5)CC4)nc32)cc1 | 3.6% |

| SMILES | HSD17B inh |
| --- | --- |
| Cc1ccc(S(=O)(=O)Cn2nnnc2C(C)N2CCN(C(=O)c3ccco3)CC2)cc1 (stereo unspecified) | 5.4% |
| O=C(O)c1ccccc1C(=O)N1CCN(c2ccccc2)CC1 | -1.5% |
| COc1cccc2c1nc(C)c1cc(C)oc12 | 31.6µM* |
| Cc1cc(C)nc(SCc2csc(N)n2)n1 | 2.4% |
| CC(C)N(Cc1nc(-c2ccccc2)no1)C(=O)c1ccc(Cl)cc1 | 7.0% |
| COC(=O)C(C(=O)Nc1cc(C)on1)C1CCCCCC1 (stereo unspecified) | 4.3% |
| CCOC(=O)C1(c2ccccc2)NC(c2ccc(N(C)C)cc2)C2C(=O)N(C)C(=O)C21 (stereo unspecified) | 5.4% |
| CCOC(=O)N1CCC(NC(=O)CS(=O)Cc2nc(-c3ccc(OC)c(OC)c3)oc2C)CC1 (stereo unspecified) | 25.1µM* |
| O=C(NCc1ccco1)c1cnn2c(C(F)F)cc(-c3ccccc3)nc12 | 31.6µM* |
| CCCCCC(=O)Nc1ccc(N2CCN(C(=O)c3ccccc3)CC2)cc1 | 13.5% |
| Cc1nc2ccc(S(=O)(=O)N(C)CC(=O)N3CCc4ccccc43)cc2s1 | -1.9% |
| O=C(Cn1cnc2c(nnn2-c2cccc(Cl)c2)c1=O)N1CCOCC1 | -6.6% |

| SMILES | HSD17B inh |
| --- | --- |
| c1ccc2oc(SCc3nc4ccccc4s3)nc2c1 | -15.9% |
| O=[N+]([O-])c1cccc(Cl)c1Cl | 0.5% |
| CCN(CC(=O)Nc1ccc2c(c1)CCC2)Cc1nc2ccccc2c(=O)[nH]1 | 0.8% |
| CS(=O)(=O)N(CC(=O)O)c1ccc(Oc2ccccc2)cc1 | 1.4% |
| Cc1nc(NCC2CCCO2)nc2c1C(=O)CC(C)(C)C2 (stereo unspecified) | 5.2% |
| O=C(CSc1nnc(-c2ccco2)o1)NC(=O)Cc1ccccc1 | -7.1% |
| CCc1ccc(NC(=O)N(CCCN2CCOCC2)C(C)c2cc3cccc(OC)c3o2)cc1 (stereo unspecified) | -8.7% |
| Cc1ccc(C(=O)NC2CCCCCC2)o1 | -13.3% |
| COc1ccccc1-c1nc(NC(C)=O)n[nH]1 | ? |
| CC1CN(c2nc3c(c(=O)n(C)c(=O)n3C)n2Cc2c(F)cccc2Cl)CC(C)O1 (stereo unspecified) | -1.5% |
| Cc1nn2cc(-c3ccc(Cl)cc3)nc2s1 | 0.9% |
| CCOC(=O)c1sc(-c2ccccc2)cc1N | ? |

| SMILES | HSD17B inh |
| --- | --- |
| CC(=O)N(c1ccc(C(C)C)cc1)C1C=CS(=O)(=O)C1 (stereo unspecified) | 3.1% |
| Cc1ccc(CS(=O)(=O)CCC(=O)NCCN2CCCCC2C)cc1 (stereo unspecified) | 8.0% |
| CC(C)=CCC/C(C)=C\COc1c2ccoc2cc2oc(=O)ccc12 | ? |
| O=C(NCCCN1CCOCC1)c1c(O)c2cc(Br)cc(Br)c2[nH]c1=O | 11.1% |
| CCOC(=O)C1CCN(C(=O)Nc2ccc3nc(C)c(C)nc3c2)CC1 | 25.1µM* |
| CCOc1ccc(/C(O)=C2/C(=O)C(=O)N(CCOCCO)C2c2cccnc2)cc1 (stereo unspecified) | -1.8% |
| O=c1c2c3c(sc2n2cnnc2n1-c1ccccc1)N(Cc1ccccc1)CCC3 | ? |
| N#Cc1c(N)c(C#N)c(-c2ccc(O)cc2)c2c1CCCC2 | 31.6µM* |
| COC(=O)c1ccccc1NC(=O)Cn1nc(C(F)(F)F)c2c1CCC2 | -12.1% |
| Cc1noc(C)c1CSc1nnc(-c2c[nH]c3ccccc23)n1-c1ccc(Cl)cc1 | 4.3% |
| COc1ccc(-n2c(Cc3cccn3C)nnc2SCC(=O)Nc2ccc3c(c2)OCO3)cc1 | -8.9% |
| COCCN(CCOC)S(=O)(=O)c1ccc(OC)cc1 | 2.2% |

| SMILES | HSD17B inh |
| --- | --- |
| CC(OC(=O)c1ccco1)C(=O)NCc1cccs1 (stereo unspecified) | 3.1% |
| CCOC(=O)C1=C(C)Nc2nc(C)nn2C1c1ccc(C)cc1 (stereo unspecified) | -2.4% |
| CC(OC(=O)c1cc2sccc2n1C)C(=O)NCc1ccco1 (stereo unspecified) | -6.3% |
| CC(=O)Nc1nonc1-c1nc2ccccc2n1CC1CC1 | ? |
| CCCn1c(=O)c2[nH]c(-c3ccc(OCC(=O)Nc4ccc(C(C)=O)cc4)cc3)nc2n(CCC)c1=O | -13.1% |
| COc1ccc(OC)c(NC(=O)Cn2c(CCC(=O)O)ccc2-c2cccs2)c1 | -16.5% |
| Cc1cc(C)n2cc(CSc3ncccc3C(=O)O)nc2n1 | 31.6µM* |
| O=C(CCc1nc(-c2ccccc2F)no1)NCCN1CCN(Cc2ccccc2)CC1 | 5.5% |
| CCNC(=O)c1c(N)sc2c1CCCCC2 | -12.5% |
| C=C(C)C(=O)OCCCCCC | 5.7% |
| CCOC(=O)Cn1c(=O)c2c(nc3n2CCN3c2ccc(C)cc2)n(C)c1=O | -2.4% |
| CC(C)[C@H](NC(=O)OC(C)(C)C)c1nnc(S(=O)(=O)Cc2c(F)cccc2Cl)o1 | -22.8% |

| SMILES | HSD17B inh |
| --- | --- |
| O=C(Cn1ccccc1=O)c1cccs1 | 1.1% |
| CC(=O)c1c[nH]c2ccc(C)cc2c1=O | ? |
| CCCCCCN(C(=O)CCCCCN1C(=O)NC(c2cccc([N+](=O)[O-])c2)C(C(=O)OCc2ccccc2)=C1C)C(C(=O)NCCCC)c1ccc(OCC(=O)OC)c(C(=O)OC)c1 (stereo unspecified) | -6.4% |
| CCC(C)(C)n1nnnc1C(C(C)C)N1CCC(C(N)=O)CC1 (stereo unspecified) | 15.5% |
| O=c1c(Cc2ccccc2)c(O)nc2n1CCS2 | 2.9% |
| Cc1cc(=O)oc(C)c1C(=O)NCC1COc2ccccc2O1 (stereo unspecified) | 2.4% |
| Cc1ccc(C(=O)n2cnnc2N)cc1C | 11.8% |
| CCOC(=O)c1[nH]c(C)c(C(=O)NCCN2CCOCC2)c1C | -5.9% |
| Cc1ccc(CNC(=O)CCc2nc3ccccc3c(=O)[nH]2)cc1 | 2.7% |
| COc1ccc(N2CC(O)=C(c3nc(C)cs3)C2=N)cc1 | 2.4% |
| COc1cc(S(=O)(=O)NCC2COCCO2)ccc1-n1cnnn1 (stereo unspecified) | 0.5% |
| CC1CCN(C(=O)C2CCN(CCCc3ccccc3)CC2)CC1 | 3.1% |

| SMILES | HSD17B inh |
| --- | --- |
| CC(C)(C)SCCNC(=O)CN(c1ccc(F)cc1)S(C)(=O)=O | 4.5% |
| O=C(NC1CC1)C1CCCN(C(=O)Nc2ccc(F)cc2)C1 (stereo unspecified) | 4.0% |
| CC(=O)N1[C@H](C)C=C[C@]1(Cc1ccccc1)C(=O)NCc1ccc(C)o1 | -29.8% |
| O=C(NCCc1ccc(Cl)cc1)C1CCC(=O)N1C1CCCC1 (stereo unspecified) | 12.9% |
| Cc1nnc(Sc2nc3c(c(=O)n(C)c(=O)n3C)n2Cc2ccccc2Cl)s1 | 4.5% |
| NS(=O)(=O)c1ccc(CCNC(=O)C2CCCN(S(=O)(=O)c3cccnc3)C2)cc1 (stereo unspecified) | 4.2% |
| CCCNC(=O)c1cc(-c2ccc(OC)cc2)on1 | 6.9% |
| O=C1c2ccccc2C(=O)N1CCCc1nc2ccccc2c(=O)n1Cc1ccco1 | -7.4% |
| CC(C)=C1CCC(C)CC1=O (stereo unspecified) | 2.8% |
| CCn1c(SCC(=O)NCc2ccccc2)nnc1-c1ccccc1O | 1.0% |
| NC(=O)NC1NC(=O)NC1=O (stereo unspecified) | -0.5% |
| O=C(CCNC(=O)Cn1ccc2ccccc2c1=O)NCCN1CCN(c2cccc(Cl)c2)CC1 | -8.3% |

| SMILES | HSD17B inh |
| --- | --- |
| Cn1cnc2cc(NC(=O)c3ccc(Cl)cc3)ccc21 | -1.9% |
| CCC12CCCN3CCC4(C(=C(C(=O)OC)C1)Nc1ccccc14)C32 (stereo unspecified) | ? |
| CCc1ccccc1NC(=O)C(CC)Sc1nc2cc3c(cc2c(=O)n1Cc1ccco1)OCO3 (stereo unspecified) | 1.5% |
| O=C(Cn1nc(-c2ccccc2)c2ccccc2c1=O)NCCN1CCOCC1 | 6.5% |
| CC(C)(C)NC(=O)c1ccc(COc2ccccc2Br)o1 | -3.3% |
| CN(Cc1cc(Br)cc(Br)c1O)Cc1c(O)ccc2ccccc12 | 2.9%[11.4 µM] |
| O=C(Cc1cn2ccsc2n1)Nc1ccccc1Oc1ccccc1 | 4.7% |
| COc1ccc(NC(=O)Cn2nc3n(c2=S)CCC3)cc1 | -0.8% |
| O=C(NCCc1cccc(Cl)c1)c1cccnc1 | 5.8% |
| CCOC(=O)c1[nH]c(C)c(C(=O)NC2CCCCC2)c1C | -2.7% |
| Cc1[nH]nc2c1C(c1cccc(O)c1)C1=C(CC(C)(C)CC1=O)N2 (stereo unspecified) | 31.6µM* |
| COC(=O)[C@@]1(Cc2ccccc2)[C@H]2c3cc(C(=O)N(C)C)n(CCSCCO)c3C[C@H]2CN1C(=O)c1ccccc1 | 5.5% |

The closing 2 compounds of the section before come first, to join the parts:
| SMILES | HSD17B inh |
| --- | --- |
| Cc1[nH]nc2c1C(c1cccc(O)c1)C1=C(CC(C)(C)CC1=O)N2 (stereo unspecified) | 31.6µM* |
| COC(=O)[C@@]1(Cc2ccccc2)[C@H]2c3cc(C(=O)N(C)C)n(CCSCCO)c3C[C@H]2CN1C(=O)c1ccccc1 | 5.5% |
| CCOC(=O)C(CC)n1cnc2c(oc3ccccc32)c1=O (stereo unspecified) | 11.4% |
| CNC(=O)Cn1nc(C)c2ccccc2c1=O | 2.1% |
| COC(=O)c1sccc1NS(=O)(=O)c1ccc(OC)cc1 | -0.6% |
| O=C(N1CCCCC1)N1CCCN(C(=O)N2CCCCC2)CC1 | 0.8% |
| O=C(CN1CCCN(S(=O)(=O)c2ccc(Br)cc2)CC1)Nc1ccc2c(c1)OCO2 | -17.5% |
| Cc1ccc(C(=O)c2cn[nH]c2-c2cc(Cl)ccc2O)cc1 | -11.7% |
| Cc1ccc(C)c(NC(=O)c2nnn(Cc3ccccc3C)c2N)c1 | -9.2% |
| CC(C)(C)NC(=O)CN(C(=O)CS(=O)CC(=O)Nc1ccc(F)cc1)c1ccc(F)c(Cl)c1 (stereo unspecified) | 4.6% |
| Cc1cccc(NC(=O)c2ccccc2OCC(=O)N2CCOCC2)c1C | 6.9% |
| CC(C)(C)C(=O)c1no[n+]([O-])c1/C(=N/O)C(C)(C)C | -1.2% |
| COc1ccc(/C=C/C(=O)c2ccc(O)cc2O)cc1 | ? |
| Cc1ccc(C(=O)Nc2ccncc2)o1 | -24.0% |

Reformatted with each value named: entries from further up.
Cc1ccc(C)c(NC(=O)c2nnn(Cc3ccccc3C)c2N)c1
  HSD17B inh = -9.2%

COC(=O)c1sccc1NS(=O)(=O)c1ccc(OC)cc1
  HSD17B inh = -0.6%

Cc1ccc(C(=O)Nc2ccncc2)o1
  HSD17B inh = -24.0%

Cc1ccc(C(=O)c2cn[nH]c2-c2cc(Cl)ccc2O)cc1
  HSD17B inh = -11.7%

Other compounds.
| SMILES | HSD17B inh |
| --- | --- |
| O=C(Nc1ccccc1C(F)(F)F)N1CCN(c2ccc3nncn3n2)CC1 | -2.7% |
| COc1ccc(N(C(=O)c2ccc(S(=O)(=O)N3CCOCC3)cc2)C2C=CS(=O)(=O)C2)cc1 (stereo unspecified) | -0.8% |
| CSc1nc(-c2ccccc2)nc(SC)c1C(C)=O | -3.8% |
| CS(=O)(=O)Nc1ccc(C(=O)NCc2ccc3c(c2)OCO3)cc1 | 3.9% |
| COc1ccc(-n2c(Cc3cccn3C)nnc2SCC(=O)Nc2ccc3c(c2)OCCO3)cc1 | -1.5% |
| CCCN1CCN(CCCNC(=O)Cn2nc(-c3ccc(C)cc3)ccc2=O)CC1 | 3.3% |
| Cn1c(=O)c2c(nc(NCCO)n2CCc2ccccc2)n(C)c1=O | -0.1% |
| Cc1cc(NS(=O)(=O)c2ccccc2)cc(Cl)c1O | ? |
| Cc1oc(-c2ccccc2F)nc1CN1CCC(C(=O)NCc2cccnc2)CC1 | 1.0% |
| CCC(OC(=O)c1cccs1)C(=O)NCc1ccc2c(c1)OCO2 (stereo unspecified) | 10.2% |
| O=S(=O)(NCCc1ccccn1)c1cccs1 | 7.2% |

Screening data deposited in PubChem by National Center for Advancing Translational Sciences (NCATS).
